# High-throughput results (PubChem)
# GIV-Gai inh: inhibitors of GIV peptide binding to Galpha-i3, primary screen, biochemical, fluorescence polarization, FITC-GIV GBA peptide, rat Galphai3. AID 1224905, 2016. hit rate 0.42% among 210,000. Guanine nucleotide-binding protein G(i) subunit alpha-3 (Rattus norvegicus), P08753. percent of control (FP), % (test concentration not listed). 90 min; active compounds read low; scaled: aluminum fluoride 0%, vehicle 100%;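 active = replicate mean at 85% of control or lower, very high polarization wells dropped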;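 also: lower values mean more displacement of the GIV peptide from Galpha-i3; wells of about 15 µL received 100 nL stock; the first replicate is given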
# Target sequence (P08753 whole entry, looked up): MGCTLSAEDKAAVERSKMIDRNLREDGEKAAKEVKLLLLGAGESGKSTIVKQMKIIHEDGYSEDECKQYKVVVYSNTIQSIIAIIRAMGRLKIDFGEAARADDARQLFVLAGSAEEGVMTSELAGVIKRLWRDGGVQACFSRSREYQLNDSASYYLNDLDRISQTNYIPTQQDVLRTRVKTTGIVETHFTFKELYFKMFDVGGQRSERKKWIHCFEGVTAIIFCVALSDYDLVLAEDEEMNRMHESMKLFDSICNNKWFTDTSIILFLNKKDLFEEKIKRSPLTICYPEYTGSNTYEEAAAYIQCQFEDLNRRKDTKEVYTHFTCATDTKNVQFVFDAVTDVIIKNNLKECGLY
# HCMV UL50-53 inh: inhibitors of HCMV UL50-UL53 interaction, biochemical, HTRF | inhibition, % (concentration not given with the values) | normalized percent inhibition | HCMV UL50-UL53 nuclear egress complex (human cytomegalovirus) | hit rate 0.15% among 190,000;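 active = both replicates at 50% or more, plus weaker picks with an unusually low signal ratio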;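 also: stock transfer was 100 nL into about 20 µL; 0% = negative control wells and 100% = wells with untagged competitor protein; inactives centre near -12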
# Sa growth 42C: S. aureus growth inhibition at 42 and 30 °C, primary screen, LtaS inhibitor project, RN4220, two temperatures; hit rate 0.53% among 170,000; AID 720641, 2013; relative growth, % (concentration not given with the values); OD600, 20 h, 42 °C; active compounds read low;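 active = growth at 42 °C up to 50% and 20 or more points under that at 30 °C, or under 10% at both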;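 also: 300 nL library stock went into each well; scaled to the means of positive and negative controls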
# Sa growth 42C second temp: also measured in Sa growth 42C; calls as there; relative growth, %; measured here: growth at 30 °C;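 optical density after 20 h as mean of two plates; 100% = untreated growth and lower means inhibition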
# * hit, by the source's call; . = not tested or not shown. Rows were taken by chance. Share with any hit: about 0.85%.
SMILES,GIV-Gai inh,HCMV UL50-53 inh,Sa growth 42C,Sa growth 42C second temp
O=C(NCCN1CCCCCC1)c1csc2c1CCCC2,105,-18,108,89
CCCN(CCC)C(=O)Cn1c(=O)n(CCCCCC(=O)NCc2ccccc2Cl)c(=O)c2sccc21,100,-7,102,95
COc1ccccc1C(=O)Oc1ccc2sc(=O)oc2c1,102,-29,89,87
CCSc1nc2sccc2c(=O)n1-c1ccccc1,.,-14,85,77
NS(=O)(=O)c1ccc(NC(=O)COC(=O)CN2C(=O)CCC2=O)cc1,103,-29,113,84
Cc1cc(C)nc(NCCCC(=O)O)n1,93,8,63,93
COc1ccc(C)cc1NC(=O)C(Cc1ccccc1)NS(=O)(=O)c1cccs1 (stereo not given),104,.,99,93
Fc1cccc(-n2ncc3c2ncn2nc(-c4ccccc4Cl)nc32)c1,103,-21,109,87
COc1ccc(C2CC(=O)C3=C(C2)OC(N)=C(C#N)C3c2ccc([N+](=O)[O-])cc2)cc1OC (stereo not given),110,4,.,.
CC(=O)N1c2ccccc2N=C(c2ccc(C)cc2)CC1c1ccccc1 (stereo not given),102,.,96,99
O=C(CCn1c(=O)sc2cc(S(=O)(=O)N3CCN(c4ccccn4)CC3)ccc21)N1CCCC1,107,11,.,.
O=C(C1CCCN(c2ncnc3onc(-c4ccc(F)cc4)c23)C1)N1CCCCC1 (stereo not given),97,-29,101,89
Cc1noc(C)c1S(=O)(=O)N1CCC(C(=O)Nc2ccc(Br)cc2)CC1,104,-18,104,86
CCOC(=O)c1c(S(=O)(=O)N2CCC(C(=O)Nc3ncccc3C)CC2)c(C)n(C)c1C,106,.,95,86
COc1ccc(NC(=O)C2CCN(S(=O)(=O)c3cc4c(cc3C)NC(=O)CO4)CC2)cc1,99,-4,.,.
Cn1nc(-c2ccc(C(=O)Nc3cccc(C(F)(F)F)c3)cc2)c2ccccc2c1=O,101,-29,87,91
CCn1nnnc1SCC(=O)c1ccc(C)cc1C,101,-16,108,82
CCN1CCc2nc3sc(C(=O)Nc4ccccc4)c(N)c3cc2C1,124,-69,115,88
COc1ccc(-c2noc(N3CCC(C(=O)N4CCN(c5ccccc5OC)CC4)CC3)n2)cc1,104,.,88,67
CCCn1c(=O)c2sccc2n2c(SCc3cccc(Br)c3)nnc12,100,-28,.,.
CCOc1ccc(OCCOC(=O)c2cnc(C)cn2)cc1,.,-6,99,88
N#Cc1ccc(COC(=O)c2ccc3c(c2)OCCO3)cc1,.,-20,97,92
CCNc1cc(N(C)CCO)c2noc3c2c1C(=O)c1ccccc1-3,282,-122,99,67
CC1CCN(CC(=O)NCc2ccccc2)CC1,106,-17,106,93
CSc1nc(-c2ccc(C(C)(C)C)cc2)c(C#N)c(=O)[nH]1,102,-26,24,15
CC(C)C(C)NC(=O)COc1nc2ccccc2nc1N(C)C1CCCCC1 (stereo not given),.,4,78,96
Cc1ccc(C(=O)COc2cc(O)c3c(=O)cc(-c4ccccc4)oc3c2)cc1,98,-5,.,.
O=c1[nH]c(=O)n(-c2ccc(F)cc2)c(O)c1C=Nc1ccccc1,.,22,82,82
O=C(O)CCC(=O)Nc1cccc(-c2nc3ccccc3o2)c1,102,-17,93,85
Cc1cccc(NC(=O)c2c(C)cc(C)nc2SCC(=O)c2ccccc2)c1,103,-19,100,84
CCN(Cc1ccccc1)c1ccc(NS(=O)(=O)c2c(C)cc(C)cc2C)cc1C(=O)O,109,-6,.,.
CCc1cc2c(cc3c(=O)n(CCCC(=O)NCc4cccc(Br)c4)ncn32)s1,99,-40,109,88
O=C(CNCc1ccccc1F)NC(=O)Nc1ccc2c(c1)OCCO2,.,-15,79,86
Cc1cc(C)cc(NC(=O)C2CCN(c3nc4ccccc4nc3C(F)(F)F)CC2)c1,100,.,85,85
CCOc1ccc(-n2c(SCC(=O)N(C)C3(C#N)CCCCC3)nc3ccccc32)cc1,.,-27,102,92
O=C(CCN1C(=O)/C(=C\c2cccs2)SC1=S)Nc1ccccn1,124,-47,.,.
Cc1ccccc1NC(=O)c1c2c(nc3ccccc13)C(=O)N(C1CCCCC1)C2,101,.,104,89
COC(=O)C1=NNC2C(=O)N(c3ccccc3C(F)(F)F)C(=O)C12 (stereo not given),107,-2,115,89
COc1cc2c(cc1OC)CN(c1ncnc3c1oc1ccccc13)CC2,.,1,67,37
COc1ccccc1C(=O)Nc1ccc2nc(N3CCC(N4CCCCC4)CC3)cc(C(=O)O)c2c1,103,-56,.,.
O=C(O)C1=C(C(=O)NC2CCCc3ccccc32)SCCS1 (stereo not given),106,2,109,93
N=C1c2ccccc2CN1c1ncc(C(F)(F)F)cc1Cl,.,-17,118,82
COc1cccc2sc(NC(=O)c3ccc(S(=O)(=O)N4CCCc5ccccc54)cc3)nc12,97,-26,.,.
CCc1cccc(C)c1NC(=O)c1cnn(-c2ccc(F)cc2)c1-n1cccc1,104,.,95,100
Cc1cccc(N2C(=O)CC(Sc3nccc(C)n3)C2=O)c1 (stereo not given),101,.,84,75

# Some of the entries so far, with tabs:
SMILES	GIV-Gai inh	HCMV UL50-53 inh	Sa growth 42C	Sa growth 42C second temp
O=C(O)CCC(=O)Nc1cccc(-c2nc3ccccc3o2)c1	102	-17	93	85
Cc1cccc(NC(=O)c2c(C)cc(C)nc2SCC(=O)c2ccccc2)c1	103	-19	100	84
CCN(Cc1ccccc1)c1ccc(NS(=O)(=O)c2c(C)cc(C)cc2C)cc1C(=O)O	109	-6	.	.
CCc1cc2c(cc3c(=O)n(CCCC(=O)NCc4cccc(Br)c4)ncn32)s1	99	-40	109	88
O=C(CNCc1ccccc1F)NC(=O)Nc1ccc2c(c1)OCCO2	.	-15	79	86
Cc1cc(C)cc(NC(=O)C2CCN(c3nc4ccccc4nc3C(F)(F)F)CC2)c1	100	.	85	85
CCOc1ccc(-n2c(SCC(=O)N(C)C3(C#N)CCCCC3)nc3ccccc32)cc1	.	-27	102	92
O=C(CCN1C(=O)/C(=C\c2cccs2)SC1=S)Nc1ccccn1	124	-47	.	.
Cc1ccccc1NC(=O)c1c2c(nc3ccccc13)C(=O)N(C1CCCCC1)C2	101	.	104	89
COC(=O)C1=NNC2C(=O)N(c3ccccc3C(F)(F)F)C(=O)C12 (stereo not given)	107	-2	115	89
COc1cc2c(cc1OC)CN(c1ncnc3c1oc1ccccc13)CC2	.	1	67	37
COc1ccccc1C(=O)Nc1ccc2nc(N3CCC(N4CCCCC4)CC3)cc(C(=O)O)c2c1	103	-56	.	.
O=C(O)C1=C(C(=O)NC2CCCc3ccccc32)SCCS1 (stereo not given)	106	2	109	93
N=C1c2ccccc2CN1c1ncc(C(F)(F)F)cc1Cl	.	-17	118	82

# Later entries.
SMILES,GIV-Gai inh,HCMV UL50-53 inh,Sa growth 42C,Sa growth 42C second temp
CC(C)C(Nc1ncnc2sc3c(c12)CCC3)C(=O)O (stereo not given),101,-1,107,105
COc1cc2c(=O)n(CCC(=O)NCC3CCCO3)c(=O)n(CC(=O)Nc3ccc(C)cc3)c2cc1OC (stereo not given),103,-4,98,96
COc1ccc(CCNC(=O)c2ccc3c(c2)ncn3-c2ccc(C(C)C)cc2)cc1OC,102,.,110,77
Nc1ncc(S(=O)(=O)NCc2ccccc2)cn1,107,.,100,86
CCOC(=O)c1c(NC(=O)CSc2nnc(-c3ccncc3)n2CC)sc2c1CCCC2,99,-23,.,.
Cc1ccc(Cn2c(C(=O)O)c(CNC3CCCCC3)c3ccc(C)cc32)cc1,103,.,116,90
Cc1ccc(NC(=O)c2ccc(-c3cccc(Cl)c3C)o2)cc1,110,-16,109,99
O=C(NCCSc1nnnn1-c1ccccc1)Nc1ccccc1,102,.,100,80
Cc1cccc(-c2nnc(SCc3nc4sc5c(c4c(=O)[nH]3)CCC(C)C5)n2C)c1 (stereo not given),.,10,102,98
C=CCn1c(SCC(=O)N2CCC(C)CC2)nc2sc3c(c2c1=O)CCCC3,103,-11,.,.
CN(CC(=O)Nc1ccc(S(N)(=O)=O)cc1)C(=O)c1ccc2c(c1)nnn2C,101,-10,.,.
CC(C)OC(=S)Nc1cccc(Cl)c1,109,-8,77,72
CCn1cc(C(=O)N(C)Cc2ccccc2)c(=O)c2cc(S(=O)(=O)N3CCc4ccccc4C3)ccc21,102,-28,104,78
CSc1nc(N)nc2nc[nH]c12,102,-15,.,.
C/C(=N\N=c1/sc2ccccc2n1C)c1ccc(S(=O)(=O)NCc2ccco2)cc1,.,-26,94,90
O=C(NC1CCCCC1)c1ccc2c(=O)nc3c(-c4ccccc4)n[nH]n3c2c1,107,-22,.,.
O=C(O)COCC(=O)Nc1ccc(Br)cc1,.,3,106,83
Cc1c(C(=O)Nc2ccc(F)c(F)c2)oc2ccc(S(=O)(=O)N(C)C3CCCCC3)cc12,103,.,129,84
CC(=O)Nc1ccc(S(=O)(=O)NC2C3(C)CCC(C3)C2(C)C)cc1 (stereo not given),101,36,107,84
CCC(C)c1ccccc1OCC(=O)Nc1ccc(S(=O)(=O)Nc2cc(C)on2)cc1 (stereo not given),102,-41,63,67
NC(=O)C1CCN(C(=O)c2ccccc2)CC1,102,-8,97,100
COc1ccc2c(c1)c1c(c(=O)n(-c3cccc(Cl)c3)c(=O)n1CC(=O)NCC1CCCO1)n2C (stereo not given),99,.,106,91
CCC(=O)Oc1ccc(C#N)cc1OC,100,-2,100,98
O=C(CN1c2ccccc2Sc2ccccc21)N/N=C/c1ccco1,103,-11,98,95
COc1ccc(C(=O)NCC(c2cccs2)S(=O)(=O)c2ccc(C)cc2)cc1 (stereo not given),96,.,112,95
CCOC(=O)c1ccc(NC(=O)C2Cc3ccccc3C(=O)O2)cc1 (stereo not given),104,-6,99,91
Cc1ccc(-c2noc(-c3c(C)cc(C)n(CC(=O)Nc4ccc(Oc5ccccc5)cc4)c3=O)n2)cc1,124,-15,.,.
CC1CCCN(S(=O)(=O)c2cccc(S(C)(=O)=O)c2)C1 (stereo not given),105,-17,98,102
FC(F)(F)c1cc(N2CCN(c3ccccc3)CC2)c2cccc(Cl)c2n1,108,-16,97,84
O=c1c2[nH]c3ccccc3c2ncn1CCCN1CCCC1,106,.,91,93
CCC(N)CC12CC3CC(CC(C3)C1)C2 (stereo not given),96,.,93,89
O=C(O)CCS(=O)(=O)c1ccc2c(c1)OCCO2,105,2,82,99
CCCN(C(=O)c1ccc(=O)n(C)n1)S(=O)(=O)c1ccc(Cl)cc1,.,-38,74,86
Cc1nc2c(-c3ccc(F)cc3)c(C)nn2c(C)c1CCC(=O)NCc1cccc(Cl)c1,104,-15,99,90
COc1ccccc1C(=O)OCc1cc(=O)n2nc(C3CC3)sc2n1,111,.,101,91
COc1ccc(CCNC(=O)CCc2c(C)c3cc4c(C)coc4cc3oc2=O)cc1,101,-7,113,89
Cc1nonc1NC(=O)CSc1ccccn1,101,-12,102,96
Clc1cccc(NCc2cccc3c2CN(CC2CCCO2)C3)c1 (stereo not given),106,.,100,79
O=C1S/C(=C\c2ccc(Cl)cc2)C(=O)N1Cc1ccccc1,101,.,98,93
Cc1ccccc1Nc1nc(N)nc(CSCC(=O)N2CCc3ccccc32)n1,.,-1,90,93
CN1C(=O)COc2ccc(-c3csc(NC(=O)COc4ccc(Cl)cc4)n3)cc21,96,-14,.,.
Cn1ccsc1=NC(=O)Cc1ccc(Cl)c(Cl)c1,.,2,106,92
O=C(O)CC(CC(=O)Nc1ccccc1)c1ccccc1 (stereo not given),103,1,112,89
O=C(Nc1nncs1)c1ccco1,106,-35,86,83
O=C(O)c1cc(-n2c(/C=C\c3ccc(F)cc3)nc3ccccc3c2=O)ccc1Cl,111,.,126,88

# Single values from the results shown.
# Sa growth 42C second temp result of Clc1cccc(NCc2cccc3c2CN(CC2CCCO2)C3)c1 (stereo not given) stands at 79
# GIV-Gai inh result of Cc1nc2c(-c3ccc(F)cc3)c(C)nn2c(C)c1CCC(=O)NCc1cccc(Cl)c1 stands at 104

# (further entries)
SMILES,GIV-Gai inh,HCMV UL50-53 inh,Sa growth 42C,Sa growth 42C second temp
Cc1cc(N2CCn3c(nc4ccccc43)C2)ccc1N,109,-21,.,.
COC(=O)c1ccccc1NC(=O)CCCn1c(C)c2cnn(-c3ccccc3)c(=O)c2c1C,104,-6,108,92
COc1ccc(OC)c(NC(=O)C2CCN(S(=O)(=O)c3c(C)noc3/C=C/c3ccc(C)cc3)CC2)c1,100,.,116,98
Nc1cccc(/C=C/c2ccncc2)c1,94,-101,95,56
COc1cccc(/C=C/C(=O)OCC(=O)N2CCC(C)CC2)c1,.,-52,80,88
O=C(COc1ccc(S(=O)(=O)N2CCCC2)cc1)N1CCCC1,101,-20,106,88
N#C/C(=C\c1c(Oc2ccc(F)cc2)nc2ccccn2c1=O)c1nc2ccccc2s1,117,-51,75,70
COC(CNc1cc(C)nc2c(-c3ccc(Cl)cc3)c(C)nn12)OC,109,-9,108,90
Cc1ccc(Nc2cc(Nc3ccccc3)ncn2)cc1,102,-43,88,98
N#Cc1c(SCC(=O)Nc2nccs2)nsc1SCC(=O)Nc1nccs1,99,2,97,97
O=c1oc(-c2ccccc2)nc2sc(-c3ccccc3)c(Cc3ccccc3)c12,101,-30,.,.
CC(CNC(=O)C1CCN(C(=O)c2cc3sccc3n2C)CC1)c1ccccc1 (stereo not given),100,-12,135,74
CC1CCN(C(=O)CCCC(=O)O)CC1,.,-1,102,83
CC(=O)Nc1ccc(NC(=O)C2CCCN(S(=O)(=O)c3cn(C(C)C)cn3)C2)cc1 (stereo not given),107,-26,.,.
O=c1[nH]c(=S)[nH]c2nc(-c3cccs3)cc(C(F)(F)F)c12,.,-26,98,75
